Prx2 Sm inh = Schistosoma Mansoni Peroxiredoxins (Prx2). S. mansoni Prx2 activity coupled to TGR/GSH (TGR is thioredoxin glutathione reductase), NADPH fluorescence loss, qHTS; some inactives read as strong as hits. Potency, µM. AID 448, 2006. actives 0.07% (n = 65,000); active means full or partial inhibition curve with a strong effect at the top dose; inconclusive means weaker partial or single-point curve; inactive means no accepted curve; note: series up to 57 µM; many of its hits are not listed in these tables
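Enzyme mix: 100 uM NADPH, 25 nM TGR, 700 uM GSH, 50 nM Prx2 in 100 mM phosphate pH 7.4, 10 mM EDTA, 0.01% Tween-20. 15 min RT with compound; NADPH/GSH added, H2O2 starts reaction; NADPH fluorescence read 8 min.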
LT uptake inh = qHTS Assay for Anthrax Lethal Toxin Internalization; Cells, anthrax lethal toxin internalization, FRET ratio (460/530); Potency, µM (doses to about 40 µM), for inactives: at the top dose activity change, negative = inhibition, usual class: inhibitors; actives 0.67% (n = 70,000); active = well fitted falling ratio curve with the 530 nm signal flat; inconclusive = other ratio curves, or a change in one channel alone; inactive = flat curves in the ratio and both channels; the % refers to the ratio; note: % is set by controls: 0 for no effect and ±100 for the full control effect; nearly all actives have a fitted effect of over 50% in size; tested in ME-180 cells; beta-lactamase reporter
The depositor's hits bear a star; ? = inconclusive; . = no result given; [ ] = remark or other dose. Potency is the fitted concentration of half-maximal effect.

Structure,LT uptake inh,Prx2 Sm inh
CC(Sc1nc2ccccc2c(=O)n1Cc1ccco1)C(=O)c1ccccc1 (configuration not stated),-25.6%,>57
CC(=O)N(O)CCCCCNC(=O)CCC(=O)N(O)CCCCCNC(=O)CCC(=O)N(O)CCCCCN,-5.1%[3.58 µM],>57
N[C@@](CCc1ccccc1)(C(=O)O)c1ccccc1,-10.7%[8 µM],>57
O=C(CCCSc1nc2ccccc2[nH]1)NC1=NCCS1,-15.5%,>57
CCn1c(CNc2ccc(C)cc2C)nnc1SCC(=O)N1CCCc2ccccc21,-11.5%,>57
CCn1nc(NC(=O)c2ccccn2)c2cc3cc(C)ccc3nc21,?,>57
COc1ccc(NC(=O)c2ccc3c(c2)C(=O)N(Cc2cccnc2)C3=O)c(OC)c1,0.0%,>57
CCCCn1c(SCC(=O)c2cc(OC)ccc2OC)nc2cc(S(N)(=O)=O)ccc21,?,>57
CCOc1ccc(-c2nnc(-c3snc(-c4ccc(F)cc4)c3N=CN(C)C)o2)cc1,17.8%,>57
COC(=O)[C@@]1(Cc2ccc(F)cc2)[C@H]2c3cc(C(=O)N(C)C)n(Cc4cccc5ccccc45)c3C[C@H]2CN1C(=O)c1ccccc1,?,>57
O=C(O)c1ccc(S(=O)(=O)NC2CCCCC2)cc1,?,>57
COc1cc(-c2nnc3sc(C4CCCCC4)nn23)cc(OC)c1OC,.,>57
Cc1nc2ncnn2c(C)c1CCC(=O)N1CCC2(CC1)OCCO2,-7.7%,>57
CNCc1cc2ccc(C)cc2[nH]c1=O,5.7%,>57
c1cc(C(c2nnnn2C2CCCCC2)N2CCN3CCCC3C2)ccn1 (configuration not stated),?,>57
Cc1nnc(Nc2ccc3c(c2)OCO3)c2ccccc12,9.3%,?
COC(=O)c1ccccc1NC(=O)CN1C(=O)CSC1=O,5.9%,>57
CN(C)CCCNCCCN,23.8%,.
c1ccc(-c2cn3c4c(sc3n2)CCCC4)cc1,-22.1%,>57
CCc1ccc2c(CN3CCc4ccccc43)cc(=O)oc2c1,?,>57
CCN(CC)CCCNC(=O)c1c(O)c2c([nH]c1=O)CCCC2,?,>57
COC(=O)CSc1nnc([C@H](CC(C)C)NC(=O)OC(C)(C)C)o1,?,>57
COc1ccc(CCn2c(C)cc(C(=O)CSc3nnnn3-c3ccccc3)c2C)cc1OC,-8.9%,>57
Cc1cc(C)cc(CSc2nnc(C)c(=O)[nH]2)c1,-5.0%,>57
COCCNC(=O)C1CC(=O)N(C2CCCC2)C1 (configuration not stated),17.0%,>57
COc1ccc(N/C(C)=C2/C(=O)C(=O)N(CCO)C2c2ccc(Br)cc2)cc1 (configuration not stated),.,>57
Cc1noc(C)c1COC(=O)c1ccc(-c2nc3ccccc3s2)s1,3.6%,>57
COc1ccc(-c2nnc(SCCOc3cccc(C)c3)n2N)cc1,-14.7%,>57
CCCCN(C)CCCNC(=O)c1ccc(N2CCCC2=O)cc1,0.2%,>57
COc1ccccc1NC(=O)CSc1nc2nc(C)cc(C)c2c(=O)[nH]1,18.6%,?
Cc1cc(OCC(O)CN2CCN(CCO)CC2)ccc1C(C)C (configuration not stated),-2.6%,>57
CCCCn1nnnc1SCC(=O)Nc1ccc(C)cc1,-0.1%,>57
CC(=O)OC(/C(O)=C(\C#N)c1nc2ccccc2[nH]1)c1ccccc1 (configuration not stated),-5.7%,>57
CC(=O)c1ccc(NC(=O)CSC(C)C)cc1,8.9%,>57
Nc1c(C(=O)c2ccccc2)oc2ccc(Br)cc12,?,>57
COc1cc(-c2nnc3sc(-c4ccccn4)nn23)cc(OC)c1OC,-7.1%,>57
CCOC(=O)c1ccc(NC(=O)CCc2nc(-c3ccccc3)no2)cc1,?,>57
CC1(C)C(=O)C(c2ccccc2)=C2CN3C(=O)N(CCc4ccccc4)C(=O)C3(Cc3ccc(C(F)(F)F)cc3)C=C21 (configuration not stated),?,>57
O=C(O)C1Cc2ccccc2CN1C(=O)c1ccccc1 (configuration not stated),-0.3%,>57
CC(CS(=O)(=O)c1cccc2cccnc12)N1CCCCC1 (configuration not stated),0.3%,>57
Cc1ccc2nc(NC(=O)C3CCCN(S(=O)(=O)c4cccc5nonc45)C3)sc2c1 (configuration not stated),-11.1%,>57
COC(=O)c1ccccc1NC(=O)Cn1cnc2ccc(S(=O)(=O)N3CCC(C)CC3)cc2c1=O,5.8%,>57
O=C(CSCc1cnn(-c2ccccc2)c1-n1cccc1)NCCN1CCOCC1,-5.3%,>57
N#Cc1cn(CCOc2ccccc2F)c2ccccc12,-24.7%,>57
COC(=O)c1ccc(C(NC(=O)OCc2ccccc2)/C(=C/[C@@H](C)C(=O)NC2CCCCC2)c2cccnc2)cc1 (some centres not stated),?,.
COCCNC(=O)C(c1ccc(C)o1)N(Cc1ccccc1)C(=O)Cn1nnc2ccccc21 (configuration not stated),6.7%,>57
Cc1cc(=O)c2cc(Cl)ccc2[nH]1,8.6%,>57
COc1ccc(CNc2nc(SCC(=O)NCc3ccco3)nc3ccccc23)cc1,-6.5%,>57
O=C(CCNS(=O)(=O)c1cccs1)Nc1ccccc1F,-8.6%,>57
O=C(c1ccco1)N1CCN(S(=O)(=O)c2ccc(Br)s2)CC1,-0.7%,>57
CCOC(=O)c1c(C)c(C(=O)NCc2ccccn2)c(C)n1C,10.4%,>57
Cc1ccc(CNC(=O)C2CCCN(S(=O)(=O)c3cccnc3)C2)cc1 (configuration not stated),-8.7%,>57
O=C(Nc1ccccc1)N1CC[C@@]2(CCCN(C(=O)c3ccncc3)C2)C1,1.4%,>57
c1ccc(Cn2nnc3c(N4CCc5ccccc54)ncnc32)cc1,-8.7%,>57
CCOC(=O)C1CCN(C(=O)c2ccccc2N(C)S(C)(=O)=O)CC1,11.4%,>57
O=S(=O)(NCc1ccccc1)c1ccc(S(=O)(=O)N2CCCCC2)cc1,5.0%,>57

(listing goes on)
Structure,LT uptake inh,Prx2 Sm inh
O=C(COc1ccc2c3c(c(=O)oc2c1)CCC3)c1ccc2c(c1)OCO2,-13.2%,.
COc1cc(C2c3c(-c4cc(Cl)c(C)cc4O)n[nH]c3C(=O)N2Cc2cccnc2)ccc1O (configuration not stated),-32.9%,>57
C#CCOC(=O)c1ccccc1C(=O)OCC#C,?,>57
COc1ccc(NS(=O)(=O)c2cc(C)ccc2NC(=O)c2cc(C)oc2C)cc1,?,>57
C/C=C(\C)c1nnc(NC(=O)C(C)C)s1,.,>57
O=C(O)CCC(=O)N1CCc2cc(S(=O)(=O)N3CCN(c4ccc(F)cc4)CC3)ccc21,-6.4%,>57
Cc1ccc(N(CC(=O)Nc2ccc(F)cc2)S(=O)(=O)N2CCCC2)cc1,10.0%,>57
COc1ccc(CCNC(=O)CN2CCOc3ccccc32)cc1OC,-7.2%,>57
Cn1c(=O)[nH]c(=O)c2c1nc(Br)n2CCC(=O)c1ccccc1,0.9%,>57
S=C([S-])NCCNC(=S)[S-].[Zn+2],?,.
Cn1cccc1Cc1nnc(SCC(=O)N2CCCc3ccccc32)n1-c1ccc(F)cc1,-2.0%,>57
CCC(C)C(NCc1cccc(C)c1)C(=O)O (configuration not stated),-3.3%,>57
CC(C)CN(CC(C)C)S(=O)(=O)N1CCC(C(=O)NCc2cccs2)CC1,0.4%,>57
Cc1onc(-c2ccccc2)c1C(=O)Nc1nc(-c2cc(F)ccc2F)cs1,-5.1%,>57
CC(C)OC(=O)CN1CCN(C2c3ccccc3-c3ccccc32)CC1,-7.3%,>57
Cn1nc(-c2ccc(OCC(=O)N3CCN(Cc4ccccc4)CC3)cc2)c2ccccc2c1=O,?,>57
c1cncc(-c2nc(NCCN3CCOCC3)c3ccccc3n2)c1,5.6%,>57
Cc1onc(-c2ccccc2Cl)c1C(=O)Nc1ccc(-n2nncc2C(C)(C)C)cc1,?,>57
O=C(Nc1ccc(-c2noc(CCc3ccccc3)n2)cc1)c1ccco1,?,>57
COC(=O)c1ccc(Cl)c(NC(=O)NC2CCCCC2)c1,2.6%,.
COc1ccc(CCN2C(=O)CC(N3CCN(S(=O)(=O)c4ccccc4)CC3)C2=O)cc1 (configuration not stated),-10.9%,>57
Cc1ccc(-c2cc(C(F)F)n3ncc(C(=O)NCc4ccco4)c3n2)cc1,12.5%,>57
CC(C)CNC(=O)C1CC(=O)OC12CCCCC2 (configuration not stated),3.3%,>57
CC(C)n1c(NCc2ccc(N(C)C)cc2)nc2ccccc21,.,>57
COC(=O)c1cc(NS(=O)(=O)c2ccc(OC)c(OC)c2)ccc1Cl,-2.6%,>57
COc1cc2c(cc1OC)C(c1ccncc1)CC(=O)N2 (configuration not stated),5.7%,>57
O=S1(=O)CCN2C=C(Br)C=C(Br)C2=N1,1.9%,>57
CC1(C)CC(=O)C=C(NCC(=O)O)C1,4.5%,>57
CCCCN(C)C(=O)c1coc(=O)c2ccccc12,1.8%,>57
C=CCn1c(SCCCCCC)nc(O)cc1=O,?,>57
O=c1oc2cc(O)ccc2cc1-c1ccc(F)cc1,-0.4%,>57
O=C(O)c1cc(O)c(O)c(O)c1,?,.
COc1ccc2[nH]cc(CCNc3ncncc3-c3cccc(NS(C)(=O)=O)c3)c2c1,5.4%,>57
O=C(Nc1ccc(N2CCOCC2)c(Cl)c1)c1c(F)c(F)c(F)c(F)c1F,-7.5%,>57
COc1ccc2[nH]c(C)c(CCN3CCC(=O)C(C)C3C)c2c1 (configuration not stated),-9.9%,>57
NC(=O)CCc1c[nH]c2ccccc12,-11.7%,.
COc1ccc(NC(=O)CSc2nc3ccccc3c(=O)n2CCNC(C)=O)cc1,6.4%,>57
CC(=O)Nc1c(C(=O)O)[nH]c2ccccc12,8.1%,>57
Oc1c(C(Nc2nc3ccccc3s2)c2ccco2)ccc2cccnc12 (configuration not stated),?,>57
COc1ccc(C(=O)Nc2nncs2)cc1S(=O)(=O)N1CC(c2ccccc2)CC1=O (configuration not stated),16.0%,>57
CC(=O)Oc1cccc(N2C(=O)C3C(C2=O)C2C=CC3C23CC3)c1 (configuration not stated),-2.9%,.
COc1ccc2c(c1OC)C(=O)N(c1cccc(C)c1)C2=O,-12.1%,.
Cc1cc(C)c2nc(SCC(=O)N3CCCCC3)c(C#N)cc2c1,-12.8%,>57
O=C(NCCN1CCOCC1)c1ccc2c(c1)N(Cc1ccccc1F)C(=O)CS2,6.4%,>57
CCOC(=O)c1ccc(NC(=O)CSc2nnc(COc3ccccc3OC)n2CC)cc1,-17.8%,>57
COc1ccccc1C1(O)CCN(CC(=O)Nc2c(C)nn(C)c2C)CC1,-12.5%,>57
O=C(Nc1nnc(-c2ccco2)s1)C1CCN(S(=O)(=O)c2ccc(Cl)cc2)CC1,-19.1%,>57
Cn1cccc1C1NC(=O)c2c(sc3c2CCC(C(C)(C)C)C3)N1 (configuration not stated),16.8%,>57
CC1=C(C(=O)Nc2ccccc2C)C(c2ccc(C)o2)N2C(=O)CSC2=N1 (configuration not stated),-28.6%,>57
N#CC(C(=O)NCCc1ccccc1)c1nc2ccccc2nc1N1CCCCC1 (configuration not stated),3.9%,>57
O=C(NCC1c2ccccc2CCN1C(=O)CN1CCOCC1)C1CCCCC1 (configuration not stated),5.8%,>57
COC(=O)C1CCN(C(=O)NC(C)(C)C)CC1,16.9%,>57
COc1ccc(O)c(CN2CCN(C/C=C/c3ccccc3)CC2)c1,-10.7%,>57
CC1CC(C)CN(c2oc(-c3ccco3)nc2C#N)C1 (configuration not stated),-9.6%,>57
O=C(CSc1nnnn1C1CCCCC1)N1CCc2ccccc21,3.0%,.
O=C1C(C=NCc2ccco2)=C(O)c2ccccc21,-3.8%,>57

Next part
Structure,LT uptake inh,Prx2 Sm inh
COc1c(C(=O)Nc2c(C)n(C)n(-c3ccccc3)c2=O)ccc2ccccc12,18.1%,.
CCCOc1ccc(/C(O)=C2/C(=O)C(=O)N(CCCOC)C2c2ccncc2)cc1 (configuration not stated),.,>57
Cc1cc(C)nc(N2C(=O)CC(Cc3ccccc3)C2=O)n1 (configuration not stated),-2.9%,>57
CN(C)CCn1nnnc1SCC1=C(C(=O)O)N2C(=O)[C@@H](NC(=O)Cc3csc(N)n3)[C@@H]2SC1,-13.2%[3.58 µM],>57

Full records from above. Screens in order: LT uptake inh, Prx2 Sm inh
COc1ccc2c(c1OC)C(=O)N(c1cccc(C)c1)C2=O is entered as -12.1%, .
CCn1c(CNc2ccc(C)cc2C)nnc1SCC(=O)N1CCCc2ccccc21 is entered as -11.5%, >57

Screening results as filed in PubChem BioAssay.

Only part of the results is shown, so the mix of outcomes need not match the whole.
